VDR inhibitor – vitamin D3 receptor (human) inhibition; P11473; VDR-SRC2-3 peptide fluorescence polarization, 2 h; Potency, µM, for inactives: max response, negative = inhibition, actives largely listed as inhibitors; 400,000 compounds, 0.93% hits; active = well fitted inhibition curve with a large enough effect; inconclusive = small, poorly fitted or top-dose-only effect, or another doubt; inactive = no such curve, though single readings can be large or run the other way; note: series mostly up to about 120 µM
Target sequence (P11473 whole entry, looked up): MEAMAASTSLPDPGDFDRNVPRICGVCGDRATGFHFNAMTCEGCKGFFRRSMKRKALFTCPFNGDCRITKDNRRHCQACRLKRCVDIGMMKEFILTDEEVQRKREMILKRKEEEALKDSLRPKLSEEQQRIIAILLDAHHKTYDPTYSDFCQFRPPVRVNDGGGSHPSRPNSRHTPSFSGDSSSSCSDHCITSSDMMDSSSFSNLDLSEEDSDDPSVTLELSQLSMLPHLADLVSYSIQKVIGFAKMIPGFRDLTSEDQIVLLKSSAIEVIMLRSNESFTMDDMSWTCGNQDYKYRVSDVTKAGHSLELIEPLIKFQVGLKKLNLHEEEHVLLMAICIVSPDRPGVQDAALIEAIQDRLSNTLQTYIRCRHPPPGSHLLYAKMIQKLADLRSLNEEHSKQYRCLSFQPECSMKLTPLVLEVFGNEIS
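Fluorescence polarization assay of small-molecule disruption of VDR binding to coregulator peptide SRC2-3. Compounds and controls pin-transferred, then read after 2 h incubation at ambient room temperature.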
An asterisk follows results filed as active; ? = inconclusive; & = joins results of further samples; [ ] = another dose, or the depositor's remark. % is set by controls: 0 for no effect and ±100 for the full control effect; potency is the fitted concentration of half-maximal effect.

SMILES	VDR inhibitor
Cc1ccc(C)c(N2CCN(c3nc4ccccc4c(=O)n3-c3ccc(Cl)cc3)CC2)c1	-7.4%
Cc1nnc(SCC(=O)NCc2ccccc2)s1	5.0%
O=C1C2C(c3ccccc3)CC=CC2[C@H](c2ccc3ccccc3c2)N1Cc1ccccc1 (some centres undefined)	-15.6%
O=C(Nc1ccc(C(=O)N2CCCC2)cc1)c1ccccc1	7.3%
O=C(CC(Nc1ccc(F)cc1)C(=O)O)c1ccccc1 (centres undefined)	?
O=C(CSc1nc2ccccc2o1)N/N=C/c1ccccc1	-1.2%
Cc1c(C(=O)C(=O)N2CCN(Cc3ccc4c(c3)OCO4)CC2)c2ccccc2n1C	-13.7%
C/C(CC(=O)NCc1ccccc1)=N\NC(=O)c1cnccn1	1.2%
CCS(=O)(=O)n1nc(NCc2cccc(OC)c2)nc1NCc1cccc(OC)c1	3.7%
COc1ccc(OCC(=O)Nc2cc(NC(=O)c3ccco3)ccc2OC)cc1	-0.7%
COc1ccc(C(=O)NC(=S)N(Cc2ccccc2)Cc2ccccc2)cc1	-12.0%
Cc1cc(/C=N/n2cnnc2)c(C)n1-c1ccc(C(=O)O)cc1	7.5%
COc1ccc(OC)c(N(CC(=O)NC2CCCC2)S(=O)(=O)c2ccc(OC)c(OC)c2)c1	5.7%
O=C(CN1CCOCC1)N(c1ccccc1)c1ccc2ccccc2c1	0.1%
CCOc1ccc(NC(=O)CCSc2nnc(C)s2)cc1	-8.3%
O=C(Nc1cccc(O)c1)c1cc2nc(-c3ccc(Br)cc3)cc(C(F)(F)F)n2n1	-0.6%
O=C(Cc1ccc(-n2cnnn2)cc1)NC12CC3CC(CC(C3)C1)C2	1.0%
CCOCCCNC(=O)C(NC(=O)c1ccc2c(c1)OCO2)c1ccccc1 (centres undefined)	-20.3%
O=P(c1ccccc1)(c1ccccc1)c1cc(S(=O)(=O)O)ccc1O	6.1%
Nc1nonc1C(=O)NCCNC(=O)c1ccc(Cl)cc1	11.7%
Fc1cccc(Cl)c1Cn1c(-c2cccs2)nc2ccccc21	3.7%
C=CCNC(=S)Nc1cc(Cl)ccc1OC	-14.5%
CCC(C)n1c(SCC(=O)Nc2ccc3[nH]c(=O)[nH]c3c2)nc2ccccc2c1=O (centres undefined)	-7.8%
Cn1nnc2sc3c(c2c1=O)CCCC3	-18.5%
O=CN1CCN(C=O)C(O)C1O (centres undefined)	17.7%
CC1=CC2=NC(=O)CC(C)(C(=O)N(CC(=O)NC(C)(C)C)C3CCCC3)N2C=C1 (centres undefined)	-8.6%
CC(=O)c1c(C)[nH]c(C(=O)CSc2nnc(-c3ccc(Cl)cc3)n2CC2CCCO2)c1C (centres undefined)	3.7%
Cc1nc(NC(=O)CSc2nnnn2Cc2ccccc2)sc1C	0.8%
C=CC(C1=CC(=O)C(OC)=CC1=O)c1ccc(OC)cc1 (centres undefined)	11.2µM*
O=C(Cn1c(C(F)(F)F)nc2ccccc21)N=Nc1c(O)[nH]c2ccc(Br)cc12	2.8%
Cc1ccc(S(=O)(=O)Oc2ccc(/C=C(/NC(=O)c3ccccc3)C(=O)NC(C)C(=O)O)cc2)cc1 (centres undefined)	-25.0%
CCc1nc(SCC(=O)NCc2ccc(F)cc2)c2c(=O)n(C)c(=O)n(C)c2n1	29.4%
Cc1cc(C)cc(C(=O)NCC(=O)NNC(=O)CSc2ccccc2F)c1	-1.6%
COc1ccc(OC)c(S(=O)(=O)CC(=O)c2cc3ccc(OC)cc3oc2=O)c1	-9.0%
COCCNC(=O)c1cc(OC)c(OC)cc1[N+](=O)[O-]	5.1%
C=C(C(C)=O)C(O)c1ccc(Cl)cc1 (centres undefined)	-4.8%
O=C(CCCN1C(=O)/C(=C\c2ccccc2)SC1=S)N1CCOCC1	?
O=C(CSc1nncs1)Nc1ccc(N2CCCCC2)cc1	-18.8%
Cc1ccc2cccc(SCC(=O)NCc3ccco3)c2n1	-21.0%
Cc1ccc(Cn2c(C(C)Nc3nc(C)cs3)nc3cc(Cl)c(Cl)cc32)cc1 (centres undefined)	-14.5%
O=C(CN1C(=O)/C(=C\c2ccccc2Br)Oc2ccccc21)NCCCN1CCOCC1	-5.8%
O=C(Nc1nc2ccccc2[nH]1)c1ccc(Cl)c(S(=O)(=O)N2CCCC2)c1	0.2%
CCOc1cc(C(=O)Nc2ccc(NC(=O)c3cc4ccccc4o3)c(OC)c2)cc(OCC)c1OCC	1.3%
Cc1ccc(S(=O)(=O)Oc2ccccc2-c2ccccc2)cc1	7.5%
COC(=O)c1sccc1-c1ccc(/C=N/OC(=O)c2ccccc2)o1	8.0%
CC(=O)Oc1ccc([C@@H]2COc3c(ccc4c3C=CC(C)(C)O4)C2)c(OC(C)=O)c1	2.7%
COc1ccc(/C=C/C(=O)NCCCc2ccccc2)cc1	-3.9%
Cc1nn(-c2ccccc2)c(=O)c2ccccc12	-2.9%
CCOC(=O)Cc1cc(-c2ccc(O)cc2)nc2ccc3ccccc3c12	21.7%
CC(C)(C)c1ccc(OCC(=O)NNC(=O)C2CCCO2)cc1 (centres undefined)	-0.9%
CCOC(=O)c1cnc(SC2CC(=O)N(c3ccc(OC)c(OC)c3)C2=O)nc1N (centres undefined)	-4.5%
CCCNCc1cc(OC)c(OCC(=O)NCCc2ccccc2)cc1Br	-9.6%
Cc1ccc(C(C)C)c(OCC(=O)NNC(=O)C(C(C)C)N2C(=O)c3ccccc3C2=O)c1 (centres undefined)	-19.3%
O=C(CNC(=O)c1ccc(Br)o1)Nc1cccc(-c2cnc3ccccc3n2)c1	-2.4%
O=c1c(-c2ccc(Cl)cc2)nc2cnc(N3CCOCC3)nc2n1C[C@H]1CCCO1	-7.9%
Cc1ccc(C(=O)NCC(=O)OCc2nnc(-c3ccccc3)o2)cc1	3.1%
CSCCC(NC(=O)COc1ccccc1)C(=O)NC1CCC(C)CC1 (centres undefined)	-17.0%
C=CCN1C(=O)c2ccc(C(=O)NCC(c3ccccc3)N(C)C)cc2C1=O (centres undefined)	-14.5%
O=C(Nc1sc2c(c1CN1CCOCC1)CCC2)c1ccc(F)cc1	-9.2%
O=C(N/N=C/c1cn(-c2ccccc2)nc1-c1cc2ccccc2o1)c1cccnc1	5.6%
Next part.
SMILES	VDR inhibitor
Cc1cc(C)n(CCCNC(=O)c2ccc(S(=O)(=O)NCc3ccco3)cc2)n1	-6.4%
CCc1nc2ccc(C(=O)NCc3ccc(SC)cc3)cc2nc1CC	21.1%
C[C@H](CO)N1C[C@H](C)[C@@H](CN(C)C(=O)Nc2ccccc2)Oc2c(NS(=O)(=O)c3ccccc3)cccc2C1=O	-17.5%
CCOc1ccc(C(=O)CCC(=O)NNC(=O)c2ccncc2)cc1	-18.4%
O=C(Cc1ccccc1)Nn1c(-c2ccccc2F)nc2ccccc2c1=O	3.0%
CCOc1ccc(C2C(C(=O)c3ccco3)=C(O)C(=O)N2CCN2CCOCC2)cc1OCC (centres undefined)	-6.7%
CCOC(=O)c1ccc(NC(=O)CSc2nnc(COc3ccccc3OC)n2C)cc1	?
Cc1ccc(-c2csc3ncn(CC(=O)OC(C)C)c(=O)c23)cc1	-0.4%
Nc1cnc(-c2ccccc2)nc1Cl	0.6%
CCOC(=O)C1CCN(c2ncnc3c2oc2ccccc23)CC1	-4.4%
O=C(NC1CC(=O)N(c2cccc(F)c2)C1)c1cccs1 (centres undefined)	8.5%
Cc1ccccc1-c1cc(C(=O)N/N=C/c2cccnc2)c2ccccc2n1	22.7%
COc1ccccc1N1CC=C(c2cccc([N+](=O)[O-])c2)NC1=O	-6.0%
CCOC(=O)c1c(NC(=O)c2ccc(Cl)cc2)csc1C	-12.4%
COC(=O)C1C2CC3c4[nH]c5cc(OC)ccc5c4CCN3CC2CC(O)C1OC (centres undefined)	32.8%[activator]
O=C(CSc1nc2ccccc2nc1N1CCOCC1)Nc1ccccc1F	-6.0%
O=C1Nc2ccc(S(=O)(=O)N3CCCC3C(=O)O)c3cccc1c23 (centres undefined)	12.9%
CN(C)c1nc(Oc2ccc(=O)n(C)n2)nc(N2CCOCC2)n1	28.0%
O=C1OC(CN(Cc2ccccc2)Cc2ccccc2)CN1N=Cc1ccc([N+](=O)[O-])o1 (centres undefined)	3.0%
CCOC(=O)c1nnn(CC(=O)N2N=C(c3ccc(Cl)cc3)CC2c2ccccc2)c1C(=O)OCC (centres undefined)	-2.0%
CN1CCCN(Cc2ccc(Cl)cc2Cl)CC1	7.0%
CCc1ccc(-n2c(=S)sc3c(=O)n(-c4ccccc4)c(SCC(=O)O)nc32)cc1	1.3%
C=CCC(=O)OCC(=O)Nc1ccc(Cl)cn1	27.7%
CCC(Sc1nc(=O)cc(N)n1CCc1ccccc1)C(=O)Nc1cc(C)on1 (centres undefined)	3.0%
O=c1oc(-c2ccc([N+](=O)[O-])cc2)nc2ccccc12	2.3%
CC[C@]12c3[nH]c4ccccc4c3CCN1C(=O)C(CC(=O)NCCCn1ccnc1)C[C@@H]2C(=O)N1CCN(C(=O)c2ccco2)CC1 (some centres undefined)	-11.5%
O=C(CN1CCN(S(=O)(=O)c2ccc(Br)cc2)CC1)N/N=C/c1ccccc1C(=O)O	6.4%
O=C(O)c1cccc(Nc2nc(C(F)(F)F)nc3ccccc23)c1	5.0%
CCC(=O)NC(=S)NNC(=O)COc1ccc(Br)cc1	-15.4%
COc1ccc(-c2nnc(SCc3cc(C)cc(C)c3)o2)cc1	11.0%
O=C(CN1CCN(c2ccc(Cl)cc2)CC1)Nc1cccc(F)c1	-9.7%
CCOC(=O)C1=C(C)NC(SC)=NC1c1ccccc1 (centres undefined)	-7.8%
CCCOc1ccc2ccccc2c1/C=C1\SC(=O)NC1=O	-25.2%
Cc1nn(-c2ccccc2)c(C)c1/C=N/n1cnnc1	-13.8%
O=C(COC(=O)c1ccc2c(c1)OCCO2)NCCC1=CCCCC1	-1.3%
O=C(OCC(=O)N1CCCCC1)c1ccc2ccccc2n1	2.2%

Quoted at random: 2 entries already listed, in no set order.
SMILES	VDR inhibitor
O=C(CSc1nc2ccccc2o1)N/N=C/c1ccccc1	-1.2%
Cc1ccc(C)c(N2CCN(c3nc4ccccc4c(=O)n3-c3ccc(Cl)cc3)CC2)c1	-7.4%

(listing goes on)
SMILES	VDR inhibitor
COc1ccc(C)cc1NC(=O)C1CCN(S(=O)(=O)c2c(C)noc2/C=C/c2ccco2)CC1	6.0%
CCC1CCCCN1CCCNC(=O)CSc1nc2nc(C)c(Cc3ccccc3Cl)c(C)n2n1 (centres undefined)	3.8%
C=C(C)Cn1c(=O)c(NC(=O)c2ccccc2)c2n(c1=S)CCC2	-0.6%
COc1ccc(S(=O)(=O)NNC(=O)C2Cc3c(ccc4ccccc34)O2)cc1 (centres undefined)	-8.6%
COc1ccccc1/C=C/C(=O)NCC(=O)N/N=C(\CCC(=O)O)c1ccccc1	-4.6%
O=C(CNC(=O)C12CC3CC(CC(C3)C1)C2)Nc1ncccc1O	?
NC(=O)C1(N2CCCCC2)CCN(C(=O)Nc2ccccc2C(F)(F)F)CC1	10.2%
CCOC(=O)C1CCCN(CC(=O)NC2=Nc3ccccc3N=C(C)C2c2ccccc2)C1 (centres undefined)	5.8%
COc1ccccc1NS(=O)(=O)c1ccc(C(=O)N2CCCC(C(F)(F)F)C2)cc1 (centres undefined)	-0.1%
COc1ccccc1NS(=O)(=O)c1cc(NC(=O)c2cccs2)ccc1N1CCCCC1	7.6%
N[C@H]1CCN(O)C1=O	-0.9%&-6.6%
CCn1c(SCC(=O)N2CCN(c3ccccc3)CC2)nnc1-c1ccoc1C	9.5%
Cc1ccc(NC(=O)Cc2ccc(-n3c(C)nc4cccnc43)cc2)c(Cl)c1	10.0%
CC1CCN(C(=O)c2[nH]cnc2C(=O)Nc2cccc(Cl)c2)CC1	-27.5%
Cc1cc2cc(C#N)c(N3CCN(S(C)(=O)=O)CC3)nc2cc1C	9.8%
Cc1cccc(NC(=O)Cn2c(=O)n(Cc3ccccc3)c(=O)c3sc4ccccc4c32)c1	-8.4%
Cc1ccc(S(=O)(=O)NCC(=O)N(CC(=O)NCC2CCCO2)Cc2ccccc2Cl)cc1 (centres undefined)	5.4%
CCC(=O)N1CCc2cc(S(=O)(=O)CCC(=O)NCCc3ccccc3)ccc21	-7.3%
c1ccc(N2CCN(c3cnc4ccccc4n3)CC2)cc1	-1.2%
S=C(NCc1ccncc1)NC1CCCCC1	8.1%
COCCN(C(=O)COC(=O)C12CC3CC(CC(C3)C1)C2)c1c(N)n(Cc2ccccc2)c(=O)[nH]c1=O	-0.1%
COc1ccc(CN2C(=O)c3ccccc3C2=O)cc1C(=O)OC(C)C(=O)NC(N)=O (centres undefined)	16.4%
CN1CCN(CCOc2ccc(-c3ccccc3)cc2)CC1	5.4%
COC(=O)C1=NNC(C(=O)c2ccco2)C1c1ccc(OC)cc1 (centres undefined)	-15.8%
O=C(CCn1c(=S)oc2ccccc21)Nc1ccc(F)cc1	8.8%
Cc1nn(CCOc2ccccc2)c(=O)n1-c1c(F)cccc1F	3.3%
CC(C)c1ccc2c(c1)CCC1C(C)(C(N)=O)CCCC21C (centres undefined)	-13.5%
Cc1cccc(NC(=O)CSc2nc3c(oc4ccccc43)c(=O)n2-c2ccccc2)c1	11.7%

Structures above with a CF3 group (5):
SMILES	VDR inhibitor
O=C(Nc1cccc(O)c1)c1cc2nc(-c3ccc(Br)cc3)cc(C(F)(F)F)n2n1	-0.6%
O=C(Cn1c(C(F)(F)F)nc2ccccc21)N=Nc1c(O)[nH]c2ccc(Br)cc12	2.8%
O=C(O)c1cccc(Nc2nc(C(F)(F)F)nc3ccccc23)c1	5.0%
NC(=O)C1(N2CCCCC2)CCN(C(=O)Nc2ccccc2C(F)(F)F)CC1	10.2%
COc1ccccc1NS(=O)(=O)c1ccc(C(=O)N2CCCC(C(F)(F)F)C2)cc1 (centres undefined)	-0.1%

An excerpt from above in order of SMILES length, smallest number first:
SMILES	VDR inhibitor
CN1CCN(CCOc2ccc(-c3ccccc3)cc2)CC1	5.4%
O=C(CCn1c(=S)oc2ccccc21)Nc1ccc(F)cc1	8.8%
CC(C)c1ccc2c(c1)CCC1C(C)(C(N)=O)CCCC21C (centres undefined)	-13.5%
Cc1cccc(NC(=O)CSc2nc3c(oc4ccccc43)c(=O)n2-c2ccccc2)c1	11.7%

Not all compounds are listed. The share of hits here may be higher or lower than overall.
